Assay outcomes deposited in PubChem BioAssay by National Center for Advancing Translational Sciences (NCATS).
Vaccinia mCherry: inhibitors of vaccinia virus infection (mCherry reporter signal); 310,000 compounds, 0.63% hits; Potency, µM (top dose mostly 36.5 µM), for inactives: at the top dose activity change, negative = inhibition, most hits filed as inhibitors; Vaccinia virus mCherry reporter infection, fluorescence; about a quarter of the inactives have no number; active = well fitted inhibition curve with a large enough effect; inconclusive = small, poorly fitted or top-dose-only effect; inactive = no such curve, though single readings can be large or run the other way; tested in A549 cells; also: nearly all actives have a fitted effect of over 35% in size; inactives centre near -10
VACV Venus inh: inhibitors of vaccinia virus (Venus reporter); Vaccinia virus Venus reporter expression, fluorescence; Potency, µM (titrated, usually from 36.5 µM), inactives show top-dose activity change, negative = inhibition, hits mostly inhibitors; 330,000 compounds, 0.46% hits; AID 720580; active means well fitted inhibition curve with a large enough effect; inconclusive means small, poorly fitted or top-dose-only effect; inactive means no such curve, though single readings can be large or run the other way; tested in A549 cells; also: nearly all actives have a fitted effect of over 30% in size; inactives centre near -10
The depositor's hits bear a star; [ ] = dose if it differs, or a comment. % is scaled to controls: 0 for no effect and ±100 for the full control effect; potency is read from the fitted curve at half-maximal effect.

The first two records, to show the layout:
What do the screens show for `O=C(Nc1nnc([C@H]2C[C@H](O)[C@@H](CO)O2)s1)c1cccc(OC(F)(F)F)c1`?
Vaccinia mCherry: 28%; VACV Venus inh: 12%

What do the screens show for `COc1cccc(-c2nc3n(n2)C(c2ccccc2Cl)C(C(N)=O)=C(C)N3)c1` (stereo unspecified)?
Vaccinia mCherry: -8%; VACV Venus inh: -5%

Results, repeating the preview:
What do the screens show for `O=C(Nc1nnc([C@H]2C[C@H](O)[C@@H](CO)O2)s1)c1cccc(OC(F)(F)F)c1`?
Vaccinia mCherry: 28%; VACV Venus inh: 12%

What do the screens show for `COc1cccc(-c2nc3n(n2)C(c2ccccc2Cl)C(C(N)=O)=C(C)N3)c1` (stereo unspecified)?
Vaccinia mCherry: -8%; VACV Venus inh: -5%

What do the screens show for `CCc1nn(CC(=O)NCCCN2CCN(C)CC2)c(=O)c2cc3occc3n12`?
Vaccinia mCherry: -1%; VACV Venus inh: 3%

How did COc1nnc(-c2ccc(N3CCCCC3)c(N)c2)c2ccccc12 do in these assays?
Vaccinia mCherry: inconclusive; VACV Venus inh: inconclusive

What do the screens show for `Cc1ccc(NC(=O)CN(C)CC(=O)Nc2ccccc2C#N)cc1`?
Vaccinia mCherry: inactive; VACV Venus inh: 1%

What do the screens show for `Fc1ccccc1CSc1nnc2ccc(-c3ccncc3)nn12`?
Vaccinia mCherry: -13%; VACV Venus inh: 0%

Results for COc1ccc(Nc2ncnc3sccc23)cc1 ?
Vaccinia mCherry: -29%; VACV Venus inh: -15%

What do the screens show for `CS(=O)(=O)N(CC(=O)Nc1ccc(Br)cc1F)C1CCCCC1`?
Vaccinia mCherry: -20%; VACV Venus inh: -21%

What do the screens show for `CCc1nnc(-n2nc(C)cc2-c2ccccc2)n1N`?
VACV Venus inh: inconclusive

Results for CC(C)(C)n1nnnc1C(c1cccs1)N1CCCC2(CCCCC2)C1 (stereo unspecified) ?
Vaccinia mCherry: -6%; VACV Venus inh: -7%

What do the screens show for `CCCCNC(=O)CSC1=Nc2ccccc2C2=NC(CCC(=O)NCc3ccccc3OC)C(=O)N12` (stereo unspecified)?
Vaccinia mCherry: -4%; VACV Venus inh: 10%

Results for O=S1(=O)[C@H]2C[C@@H]3C=C[C@]2(CN1Cc1ccc(C(F)(F)F)cc1)O3 ?
Vaccinia mCherry: -3%; VACV Venus inh: -17%

How did CC(=O)Nc1ccc(NC(=O)c2cc3sccc3n2Cc2ccc(F)cc2)cc1 do in these assays?
Vaccinia mCherry: -7%; VACV Venus inh: -5%

What do the screens show for `COc1ccc(NC(=O)CSc2nnc3scc(-c4ccc(Cl)cc4)n23)cc1`?
Vaccinia mCherry: -8%; VACV Venus inh: -3%

What do the screens show for `COc1cccc(NC(=O)c2c([N+](=O)[O-])cnn2C)c1`?
Vaccinia mCherry: -19%; VACV Venus inh: -5%

How did CCOC(=O)N1CCN(C(=O)C2CCCCC2)CC1 do in these assays?
Vaccinia mCherry: -13%; VACV Venus inh: -8%

What do the screens show for `CCOc1cc(C2NC(=O)NC(c3ccccc3)=C2C(=O)c2ccccc2)c(Br)cc1OCC(=O)O` (stereo unspecified)?
Vaccinia mCherry: inactive; VACV Venus inh: -7%

How did CC1CCCN(C(=O)C2CCN(CC3CC=CCC3)CC2)C1 (stereo unspecified) do in these assays?
VACV Venus inh: -5%

How did O=C(CSc1cn(Cc2ccccc2)c2ccccc12)NCc1ccc(F)cc1 do in these assays?
Vaccinia mCherry: -11%; VACV Venus inh: -14%

How did O=C(C(=Cc1ccccc1)c1ccccc1)c1ccccc1 do in these assays?
Vaccinia mCherry: 2%; VACV Venus inh: -1%

Results for C[n+]1cccc(C(=O)NNC(=O)C23CC4CC(CC(C4)C2)C3)c1 ?
Vaccinia mCherry: -5%; VACV Venus inh: 3%

What do the screens show for `Cc1cc(C)c(NC(=O)Cn2nnc3sc4c(c3c2=O)CCC(C(C)(C)C)C4)c(C)c1` (stereo unspecified)?
Vaccinia mCherry: inconclusive; VACV Venus inh: inconclusive

Results for Cc1ccc2sc(N(CCCN(C)C)C(=O)c3ccc(S(=O)(=O)N4CCOCC4)cc3)nc2c1C ?
Vaccinia mCherry: -27%; VACV Venus inh: -18%

What do the screens show for `O=C(NC1CCCCC1)c1cc(-c2cccs2)on1`?
Vaccinia mCherry: 19%; VACV Venus inh: -6%

What do the screens show for `Cc1cc([N+](=O)[O-])nn1CC(=O)N1CCc2ccccc2C1`?
VACV Venus inh: -21%

Results for CCc1ccc(NC(=O)CSc2nc3ccccc3c(=O)n2CCCC(=O)NCCCN2CCOCC2)cc1 ?
Vaccinia mCherry: -20%; VACV Venus inh: -18%

How did Nc1ncnc2c1ncn2[C@@H]1O[C@H](C(=O)NS(=O)(=O)c2ccccc2[N+](=O)[O-])[C@@H](O)[C@H]1O do in these assays?
Vaccinia mCherry: inactive; VACV Venus inh: 0%

What do the screens show for `Cc1cc(=O)oc2c(C(=O)/C=C\c3cccs3)c(O)ccc12`?
Vaccinia mCherry: -24%; VACV Venus inh: inconclusive

What do the screens show for `CN(C)S(=O)(=O)c1cccc(-c2nnc(SCc3ccc4c(c3)OCCO4)o2)c1`?
Vaccinia mCherry: -12%[1.46 µM]; VACV Venus inh: -19%

How did CC(C)C(NC(=O)CN(c1ccc2c(c1)OCCO2)S(=O)(=O)c1ccccc1)C(C)C do in these assays?
Vaccinia mCherry: 0%; VACV Venus inh: -20%

Results for O=C(CSc1ccccc1)N1CCCC(N2CCN(c3ccccc3)CC2)C1 (stereo unspecified) ?
Vaccinia mCherry: -26%; VACV Venus inh: -14%

How did CCCN(C(=O)c1cnccn1)c1c(N)n(Cc2ccccc2)c(=O)[nH]c1=O do in these assays?
Vaccinia mCherry: -12%; VACV Venus inh: -2%

What do the screens show for `CC(=O)N1c2ccc(S(=O)(=O)Nc3ccc(Cl)cc3C)cc2CC1C` (stereo unspecified)?
Vaccinia mCherry: -21%; VACV Venus inh: -26%

What do the screens show for `COc1cccc(-c2cc(C(=O)N/N=C/c3cccc(OC)c3OC)c3ccccc3n2)c1`?
Vaccinia mCherry: -14%; VACV Venus inh: -7%

What do the screens show for `COc1ccc(-c2noc(CCCCC(=O)N3CCN(c4cc(C)ccc4C)CC3)n2)cc1`?
Vaccinia mCherry: inconclusive; VACV Venus inh: inconclusive

How did COc1ccc(-n2c(=S)[nH]c3cc(C(=O)Nc4cc(C(N)=O)ccc4OC)ccc3c2=O)c(OC)c1 do in these assays?
Vaccinia mCherry: -6%; VACV Venus inh: 3%

How did COC(=O)c1ccccc1NC(=O)N1CCN(C(=O)c2ccco2)CC1 do in these assays?
Vaccinia mCherry: -13%; VACV Venus inh: -11%

How did c1ccc(C2Oc3ccccc3C3CC(c4cccs4)=NN32)cc1 (stereo unspecified) do in these assays?
Vaccinia mCherry: -10%; VACV Venus inh: -8%

Results for O=C(C1CCCN(S(=O)(=O)c2ccccc2)C1)N1CCN(c2ncccn2)CC1 (stereo unspecified) ?
Vaccinia mCherry: -26%; VACV Venus inh: -14%

What do the screens show for `O=C(CNC(=O)/C(=C\c1ccc(Br)cc1)NC(=O)c1ccccc1)OCc1ccccc1`?
Vaccinia mCherry: -6%; VACV Venus inh: -3%

A portion from the list above:
What do the screens show for `O=C(Nc1nnc([C@H]2C[C@H](O)[C@@H](CO)O2)s1)c1cccc(OC(F)(F)F)c1`?
Vaccinia mCherry: 28%; VACV Venus inh: 12%

What do the screens show for `COc1cccc(-c2nc3n(n2)C(c2ccccc2Cl)C(C(N)=O)=C(C)N3)c1` (stereo unspecified)?
Vaccinia mCherry: -8%; VACV Venus inh: -5%

What do the screens show for `CCc1nn(CC(=O)NCCCN2CCN(C)CC2)c(=O)c2cc3occc3n12`?
Vaccinia mCherry: -1%; VACV Venus inh: 3%

Next results follow:
What do the screens show for `C=C1C=C(C(F)F)n2ncc(C(=O)NC(C)CC)c2N1` (stereo unspecified)?
Vaccinia mCherry: -5%; VACV Venus inh: -14%

Results for COc1cc2c(cc1OC)-c1cc(Nc3ccc(N(C)C)cc3)nc(=O)n1CC2 ?
Vaccinia mCherry: -15%[7.34 µM]; VACV Venus inh: -14%[7.34 µM]

What do the screens show for `COc1cccc(-n2nnc3c(=O)n(CC(=O)NC4CCCC4)cnc32)c1`?
Vaccinia mCherry: -14%; VACV Venus inh: -9%

How did CSc1nc2ccccc2n1C(=O)NC1CCCCC1 do in these assays?
VACV Venus inh: -2%

Results for COc1ccc(Cc2c(C(C)(C)C)nc3ccc(Br)cn23)c(C)c1 ?
Vaccinia mCherry: inactive; VACV Venus inh: 11%

How did CCOc1ccc(OCCNC(=O)c2oc3ccccc3c2COC)cc1 do in these assays?
Vaccinia mCherry: -1%; VACV Venus inh: -14%

How did Cc1noc(C(=O)Nc2ccc(F)cc2F)c1Cl do in these assays?
Vaccinia mCherry: inactive; VACV Venus inh: -15%

Results for O=C(/C=C/c1ccco1)NC(=S)NNC(=O)c1ccco1 ?
Vaccinia mCherry: -33%; VACV Venus inh: -12%

What do the screens show for `O=c1c2ccccc2oc2ccc(NCCCN3CCOCC3)cc12`?
Vaccinia mCherry: inactive; VACV Venus inh: 1%

How did COc1ccc(C(=O)N2CCN(C(C)=O)CC2)cc1S(=O)(=O)N1CCOCC1 do in these assays?
Vaccinia mCherry: inactive; VACV Venus inh: -9%

What do the screens show for `CC(=O)N=c1cccc(NC(C)=O)n1O`?
Vaccinia mCherry: -7%; VACV Venus inh: 0%

What do the screens show for `COc1cc(/C=C(/NC(=O)c2ccccc2)C(=O)Nc2ccccc2)c([N+](=O)[O-])cc1OC`?
Vaccinia mCherry: inactive; VACV Venus inh: -12%

What do the screens show for `Cc1sc2ncn(CC(=O)N3CCN(c4ccccn4)CC3)c(=O)c2c1S(=O)(=O)N1CCC(C)CC1`?
Vaccinia mCherry: inactive; VACV Venus inh: -4%

Results for c1ccn2c(Cc3nnc4ccccn34)nnc2c1 ?
Vaccinia mCherry: inactive; VACV Venus inh: -4%

What do the screens show for `COc1ccc(CCn2c(-c3cccc([N+](=O)[O-])c3)nc3nc4ccccc4nc32)cc1`?
Vaccinia mCherry: -7%; VACV Venus inh: -3%

Results for Cc1ccc(N2CC(C(=O)N3CCc4ccccc43)CC2=O)cc1 (stereo unspecified) ?
Vaccinia mCherry: inactive; VACV Venus inh: -7%

Results for CCCn1c(N2CCN(Cc3ccc(Cl)cc3)CC2)nc2ccccc21 ?
Vaccinia mCherry: -14%; VACV Venus inh: -23%

How did COc1ccc(Nc2cc(C)nc3ccc(C)cc23)cc1 do in these assays?
Vaccinia mCherry: -13%; VACV Venus inh: -8%

What do the screens show for `Cc1cccc(NC(=O)Cn2c(=O)n(-c3ccccc3Cl)c(=O)c3c(C)c(C(=O)N(C)C)sc32)c1`?
Vaccinia mCherry: -9%; VACV Venus inh: -7%

What do the screens show for `CN1Cc2cnnn2-c2ccccc2C1c1ccccc1` (stereo unspecified)?
Vaccinia mCherry: inactive; VACV Venus inh: 0%

How did CCn1c(SCc2nc3ccccc3s2)nnc1-c1ccccc1 do in these assays?
VACV Venus inh: -19%

Results for O=c1oc2ccccc2nc1/C=C(O)/C=C/c1ccc(F)cc1 ?
Vaccinia mCherry: -10%; VACV Venus inh: -10%

How did CC1CCc2nn(CC(=O)NC3CCCC(C)C3C)cc2C1 (stereo unspecified) do in these assays?
Vaccinia mCherry: -7%; VACV Venus inh: -10%

What do the screens show for `Cc1cc(C)cc(SCc2noc(C(=O)NC(C)C)c2C(=O)O)c1`?
Vaccinia mCherry: inactive; VACV Venus inh: -6%

Results for COC(=O)[C@]1(S(=O)(=O)c2ccccc2)C[C@@H]2ON=C(c3ccc(OC)cc3)[C@@H]2C1 ?
Vaccinia mCherry: inconclusive; VACV Venus inh: -13%

Results for CN1C(=O)C(O)(c2nnc(-c3ccccc3)o2)c2ccccc21 (stereo unspecified) ?
Vaccinia mCherry: -2%; VACV Venus inh: -2%

Results for CCC(=O)Nc1ccc(NC(=O)CSc2nnc(C(C)C)n2C)cc1 ?
Vaccinia mCherry: inactive; VACV Venus inh: -9%

Results for COc1ccc(CCNc2c3ccccc3nc3ccccc23)cc1OC ?
Vaccinia mCherry: -11%[7.34 µM]; VACV Venus inh: -7%[7.34 µM]

How did COc1ccc(C)cc1NC(=O)c1cc(S(=O)(=O)NCCC2=CCCCC2)ccc1F do in these assays?
Vaccinia mCherry: -5%; VACV Venus inh: -5%

Results for Cc1cc(-c2ccc(Br)cc2)n[nH]1 ?
Vaccinia mCherry: -2%; VACV Venus inh: -21%

4 compounds already listed, sorted by formula weight, high to low:
Results for COC(=O)[C@]1(S(=O)(=O)c2ccccc2)C[C@@H]2ON=C(c3ccc(OC)cc3)[C@@H]2C1 ?
Vaccinia mCherry: inconclusive; VACV Venus inh: -13%

Results for CCC(=O)Nc1ccc(NC(=O)CSc2nnc(C(C)C)n2C)cc1 ?
Vaccinia mCherry: inactive; VACV Venus inh: -9%

Results for O=c1oc2ccccc2nc1/C=C(O)/C=C/c1ccc(F)cc1 ?
Vaccinia mCherry: -10%; VACV Venus inh: -10%

How did CC1CCc2nn(CC(=O)NC3CCCC(C)C3C)cc2C1 (stereo unspecified) do in these assays?
Vaccinia mCherry: -7%; VACV Venus inh: -10%

Continuation:
Results for CCOC(=O)c1ccc(N2CCN(c3cc(Cl)ccc3C)CC2)c(NC(=O)Nc2ccc(OCC)cc2)c1 ?
Vaccinia mCherry: 0%; VACV Venus inh: -12%

Results for Cc1nc(SCC(=O)c2cccc([N+](=O)[O-])c2)n[nH]1 ?
VACV Venus inh: -3%

What do the screens show for `O=C(CSc1nc2ccccc2c(=O)n1Cc1ccccc1)NCc1ccco1`?
Vaccinia mCherry: inactive; VACV Venus inh: -18%

What do the screens show for `COc1cccc(Nc2cc(N3CCOCC3)c3nonc3c2[N+](=O)[O-])c1`?
VACV Venus inh: -3%
